# Assay outcomes as filed in PubChem.
# H5N1 CPE: antiviral screen in MDCK cells, H5N1 avian flu | cytopathic effect, luminescence, 72 h; stronger effect = higher value; no value below 0 was filed and about half of the inactive calls have no number; reference of the scale not given here | inhibition, % at 50 µM | 96,000 compounds, 0.07% hits; in the data active = inhibition above about 25%
# Starred values were filed as active, the others as inactive; i = inactive. Not all compounds are listed; count on the stated rates, not on these rows.
no. | structure | H5N1 CPE
1 | Cc1ccc(S(=O)(=O)c2c(C)nn(C(C)(C)C)c2OC(=O)C2CCCC2)cc1 | i
2 | CCOC(=O)C1CCCN(c2c(NCC3CCCO3)c(=O)c2=O)C1 (stereo unspecified) | 0.8
3 | Cc1ccc2cc(-c3noc(C(C)(C)C)n3)c(=O)[nH]c2c1 | 0.6
4 | CCOC(=O)c1c(C)c(C(=O)NCCOC)c(C)n1CC | i
5 | CCOCC(=O)N1CCCC(C(=O)OCC)C1 (stereo unspecified) | 0.3
6 | Cc1ccc(OCC(=O)Nc2ccc(-c3nc4ncccc4o3)cc2)c(C)c1 | 0.1
7 | O=c1c2ccccc2n(Cc2ccccc2F)c(=O)n1Cc1ccccc1F | i
8 | CCCN(CCC)S(=O)(=O)c1ccc(C(=O)Nc2ccc(OCC(=O)N3CCOCC3)cc2)cc1 | i
9 | COc1ccc(-c2ccc(C(=S)N3CCN(C(C)=O)CC3)o2)cc1 | 0.8
10 | COc1ccccc1NC(=O)CSc1nnc(-c2ccoc2C)n1CCc1ccccc1 | i
11 | CCOCCn1c(SCc2ccc(F)cc2)nc2c1c(=O)[nH]c(=O)n2C | 1.8
12 | O=C(O)CCSCCC(=O)O | i
13 | O=C(CSc1nc(-c2ccccc2)cc(C(F)(F)F)n1)NCCN1CCOCC1 | i
14 | CCOC(=O)c1ccc(OCc2c(C)noc2C)cc1 | i
15 | COc1ccccc1-c1nnc2sc(-c3cc4ccccc4o3)nn12 | 2.1
16 | Cc1ccccc1Nc1nc(N)nc(CN(C)c2ccccc2)n1 | i
17 | CCOc1cc(C#N)c(NC(=O)Cn2nnc3ccccc32)cc1OCC | 0.1
18 | CCOC(=O)N1CCN(C(=O)CSc2nnc(-c3cccc(OC)c3)o2)CC1 | i
19 | Cc1csc(SCc2nnc(-c3ccccc3Br)o2)n1 | 0.1
20 | O=C(CN1CCNCC1)Nc1ccccc1Cl | 0.0

# Reformatted: entries from further up.
18	CCOC(=O)N1CCN(C(=O)CSc2nnc(-c3cccc(OC)c3)o2)CC1
  H5N1 CPE = i

19	Cc1csc(SCc2nnc(-c3ccccc3Br)o2)n1
  H5N1 CPE = 0.1

# Some of the entries above, set out differently.
(9) COc1ccc(-c2ccc(C(=S)N3CCN(C(C)=O)CC3)o2)cc1
  H5N1 CPE: 0.8

(10) COc1ccccc1NC(=O)CSc1nnc(-c2ccoc2C)n1CCc1ccccc1
  H5N1 CPE: i

(11) CCOCCn1c(SCc2ccc(F)cc2)nc2c1c(=O)[nH]c(=O)n2C
  H5N1 CPE: 1.8

(12) O=C(O)CCSCCC(=O)O
  H5N1 CPE: i

# Other structures:
no. | structure | H5N1 CPE
21 | O=C(c1ccccc1)C(CCC(CN1CCOCC1)C(=O)c1ccccc1)CN1CCOCC1 (stereo unspecified) | 0.7
22 | CC/C(=C\C(=O)c1ccncc1)Nc1ccc(O)cc1 | 0.2
23 | O=C(NCCN1CCOCC1)c1ccc(Cl)c(S(=O)(=O)N2CCCCCC2)c1 | i
24 | COC(=O)Nc1ccc(S(=O)(=O)N2CCCC(C(=O)Nc3cccnc3)C2)cc1 (stereo unspecified) | 0.7
25 | CCn1c(CSc2nnc3ccccn23)nc2cc(C(=O)O)ccc21 | 0.6
26 | Cc1nc2n(n1)C(c1ccccc1)C1=C(CC(c3ccco3)CC1=O)N2 (stereo unspecified) | 1.6
27 | CC(Sc1nnc(CNc2cccc3ccccc23)n1-c1ccccc1)C(=O)N/N=C/c1ccco1 (stereo unspecified) | i
28 | CCCS(=O)(=O)n1nc(-c2ccc(Br)cc2)cc1N | i
29 | Cc1ccc(SCCNS(=O)(=O)c2ccc(F)cc2)cc1 | i
30 | Cc1ccc(C)c(Oc2nnnn2-c2ccccc2)c1 | 0.1
31 | CC1(c2cnc(Nc3ccccc3)s2)CCC(=O)O1 (stereo unspecified) | 0.4
32 | CN(C)c1nc(Oc2ccc(=O)n(-c3ccccc3)n2)nc(N2CCOCC2)n1 | 2.0
33 | CCC1=NN(C(=O)C(=O)Nc2ccccc2OC)C(O)(C(F)(F)F)C1 (stereo unspecified) | 1.7
34 | Cn1nc(-c2ccc(Cl)cc2)c2cc(C(=O)N3CCOCC3)sc21 | i
35 | O=C1CSC(=S)N1CC1CCCO1 (stereo unspecified) | 3.7
36 | CCCC(=O)N1c2ccccc2C(N(C(C)=O)c2ccccc2)CC1C (stereo unspecified) | 7.2
37 | CCCCN(C)CCn1c(=S)[nH]c2ccc(N3CCOCC3)cc2c1=O | i
38 | O=C(Nc1ccc(S(=O)(=O)NCCc2ccccc2)cc1)c1ccco1 | i
39 | Cc1ccc(N(C)C(=O)N2CCN(S(=O)(=O)c3ccc4ccccc4c3)CC2)cc1 | 1.3
40 | Cc1ccc(S(=O)(=O)N2CCCCC2C(=O)N2CCN(Cc3ccccc3)CC2)cc1 (stereo unspecified) | 4.5
41 | Cc1ccc(Cl)cc1N1CCN(C(=O)Cc2cn(C)c3ccccc23)CC1 | i
42 | O=C(CN(c1ccc(Cl)c(C(F)(F)F)c1)S(=O)(=O)c1ccccc1)N1CCOCC1 | i
43 | CCc1nnc(NC(=O)CSc2nnc(-c3cccnc3)n2CCc2ccccc2)s1 | 1.8
44 | Cc1c(Br)c([N+](=O)[O-])nn1C(C)C(=O)NCc1cccs1 (stereo unspecified) | i
45 | COc1ccc(CCSc2nnc(C3CCCCC3)n2N)cc1 | 1.0
46 | Cn1c(=O)[nH]c(=O)c2c1nc(NC1CCCCC1)n2Cc1ccccc1 | i
47 | CCOC(=O)C1SC2(C(F)(F)C(F)F)CC1(O)c1c(c(OC)c3occc3c1OC)O2 (stereo unspecified) | i
48 | CCn1c(CNc2ccc(F)cc2)nnc1SCC(=O)N1CCCc2ccccc21 | i
49 | Cc1cc(C)cc(-n2nnc(C(=O)NCc3ccccc3)c2N)c1 | 1.0
50 | CCn1nc2cc(C(=O)NCc3cc(C(F)(F)F)cc(C(F)(F)F)c3)ccc2c1OC | i
51 | CCC(=O)c1cc(F)c(N2CCN(C(=O)c3ccco3)CC2)cc1C | i
52 | CCOC(=O)c1ccoc1CSCC(=O)N1CCN(S(=O)(=O)c2ccc(C)cc2)CC1 | 0.9
53 | Cc1ccc(C(=O)n2nc(-c3cccnc3)nc2N)cc1 | 1.1
54 | COc1ccc(C(=O)NCc2nnc(SCC(=O)N3CCc4ccccc43)o2)cc1OC | i
55 | CC(=O)NC(=S)c1c(N)n(Cc2ccccc2)c(=O)n(C)c1=O | 1.4
56 | COc1ccc(S(=O)(=O)N2CCC(C(=O)NCc3ccccn3)CC2)cc1OC | 0.1
57 | Cn1c(=O)[nH]c(=O)c2c1nc(Br)n2CC(O)COCc1ccccc1 (stereo unspecified) | 0.7
58 | CCC(=O)Oc1ccc(C2N(C(=O)CC)CCN2S(=O)(=O)c2ccc(C)cc2)cc1OC (stereo unspecified) | i
59 | COCCN(Cc1cc2cc(C)cc(C)c2nc1Cl)C(=O)Nc1ccccc1 | i
60 | O=C(O)C1C(c2ccccc2)C(C(=O)Oc2ccccc2)C1c1ccccc1 (stereo unspecified) | 1.0
61 | Cc1cc(C)n(-c2nc3c(c(=O)n(C)c(=O)n3C)n2C)n1 | i
62 | O=C(NCCc1ccccc1Cl)C1CCN(S(=O)(=O)c2cccs2)CC1 | i
63 | Cc1oc(-c2ccccc2F)nc1CS(=O)(=O)CC(=O)N1CCc2ccccc21 | 1.8
64 | CN1CCc2c(sc3c2c(=O)n(-c2ccccc2)c2nnc(SCc4ccccc4)n32)C1 | 1.9
65 | O=S(=O)(O/N=C1\CCCc2ccccc21)c1ccc(Cl)cc1 | 0.1
66 | Cc1c(-c2nn(C)c(=O)c3ccccc23)oc2ccc(F)cc2c1=O | 0.9
67 | Cc1cc(C)cc(N2C(=O)C3CC=CCC3C2=O)c1 (stereo unspecified) | 0.1
68 | O=C(CCn1c(=O)[nH]c2ccsc2c1=O)N1CC(=O)N(CCc2ccccc2)C(=O)C1 | 0.0
69 | CCOC(=O)c1c(C)nc2sc3c(=O)n(-c4ccc(C(C)=O)cc4)nnc3c2c1-c1ccc(Cl)cc1 | i
70 | O=P(O)(c1ccc(Cl)cc1)c1ccc(Cl)cc1 | 1.4
71 | COc1ccc(NC(=O)c2c(Cl)n(C)c3ccccc23)cc1 | i
72 | CCOc1ccc(C2Sc3ccccc3NC3=C2C(=O)OC3)cc1 (stereo unspecified) | i
73 | CNC(=O)c1ccc(-c2ccc(F)cc2)s1 | 0.1
74 | Cc1ccc(/C(C#N)=C\c2ccc(N3CCOCC3)o2)cc1 | 0.3
75 | Cc1ccc(Cn2c(NCCCn3ccnc3)nc3c2c(=O)n(C)c(=O)n3C)cc1 | 1.5
76 | O=C(Nc1ccc2c(c1)oc1ccccc12)c1ccc(Br)o1 | i
77 | N#Cc1c(NC(=O)CSc2nnc(-c3ccccc3O)n2-c2ccccc2)sc2c1CCCC2 | 0.2
78 | COc1ccc(Cc2nnc(SC)[nH]c2=O)cc1 | i
79 | CC(=O)Oc1ccc(-c2nc(-c3cccnc3)no2)cc1 | i
80 | O=C(CSc1nc2ccccc2o1)Nc1nc2ccc(Br)cc2s1 | i

# The list goes on.
no. | structure | H5N1 CPE
81 | COCCN1C(=O)c2oc3ccccc3c(=O)c2C1c1ccc(C(=O)OC)cc1 (stereo unspecified) | 0.9
82 | COc1ccc(OC)c(C2SCCN2S(=O)(=O)c2cccc(C(F)(F)F)c2)c1 (stereo unspecified) | 1.7
83 | Cc1ccc(S(=O)(=O)Cc2ccc(C(=O)O)o2)cc1 | i
84 | COC(=O)C1=C(C(=O)OC)C(c2cc(Cl)ccc2O)c2sc(=O)[nH]c2S1 (stereo unspecified) | i
85 | Cc1ccc(C(=O)N2CCN(c3ccccc3)CC2)cc1S(=O)(=O)N1CCCC1 | i
86 | Nc1nnc(SC2CC(=O)N(c3ccccc3)C2=O)s1 (stereo unspecified) | 0.9
87 | Cc1cc(C)c(S(=O)(=O)NCC2CCC(C(=O)N3CCC4(CC3)OCCO4)CC2)c(C)c1 (stereo unspecified) | i
88 | CC(C)C(=O)Nc1ccc(NC(=O)c2ccco2)cn1 | 1.6
89 | Cc1ccc(/C=N\NC(=O)Cn2nnc3ccccc32)o1 | 0.9
90 | CCc1cc(=O)oc2c(CN3CCN(C)CC3)c(O)c(Cl)cc12 | i
91 | O=C(Nc1cccc(OCC(=O)N2CCOCC2)c1)C1CCCCC1 | 0.1
92 | CCc1cc2cc(C(=O)N3CCN(c4ccccc4)CC3)sc2s1 | 0.2
93 | Cc1cc(C(=O)CSc2nnc(-c3ccc(Cl)cc3)n2C)c(C)n1CC1CCCO1 (stereo unspecified) | i
94 | Cc1cccnc1NC(=O)Cn1nc(C)c([N+](=O)[O-])c1C | 0.4
95 | N#Cc1cc2c(nc1SCc1ccncc1)CCC2 | 0.6
96 | CCc1ccccc1N1C(=O)c2cccc3c(N4CCOCC4)c([N+](=O)[O-])cc(c23)C1=O | i
97 | Cc1ccc(Nc2nnc(SCC(=O)Nc3ccc(S(=O)(=O)N4CCOCC4)cc3)s2)cc1 | 3.4
98 | COc1cc(C2C3C(=O)N(Cc4ccccc4)C(=O)C3ON2c2ccccc2)cc(OC)c1O (stereo unspecified) | i
99 | O=S(=O)(/N=S1/CC=CCN1S(=O)(=O)c1ccccc1)c1ccccc1 (stereo unspecified) | 1.1
100 | Nc1nc2n(n1)C(c1ccco1)CC(c1ccc(F)cc1)N2 (stereo unspecified) | i
101 | COc1ccc(S(=O)(=O)N(C)CC(=O)N2CCC(C)CC2)cc1Cl | 0.5
102 | CC(C)C(NC(=O)c1ccccc1)c1nnc(SCC(=O)Nc2nccs2)n1C (stereo unspecified) | 0.9
103 | CC(=O)NNc1cccc(Cl)n1 | i
104 | O=C(/C=C/c1ccccc1)N/C(=C\c1ccco1)C(=O)NCCO | 1.4
105 | CC1CCN(S(=O)(=O)c2cccc(C(=O)Nc3nccs3)c2)CC1 | 0.1
106 | Cc1ccc(OC(=O)c2cccc(S(=O)(=O)N(C)C)c2)c(-n2nc3ccccc3n2)c1 | i
107 | CCn1c(CCNC(=O)c2ccc(OC)c(OC)c2)nc2ccccc21 | 0.6
108 | Cc1ccc(C2=NN(S(C)(=O)=O)C(c3cccs3)C2)cc1 (stereo unspecified) | 0.6
109 | COc1nnc(-c2ccc(N3CCOCC3)c(NC(C)=O)c2)c2ccccc12 | 1.6
110 | CNP1(NC)=Nc2nn(-c3ccccc3)c(N)c2C(c2ccccc2)=N1 | 0.1
111 | CCOC(=O)N1CCC(N(C(=O)Nc2ccc(Cl)c(Cl)c2)C(C)CC)CC1 (stereo unspecified) | i
112 | C=CCC(Nc1ccco1)c1ccccc1 (stereo unspecified) | i
113 | CCOC(=O)c1c(C)[nH]c(C(=O)Cn2c(=O)c3c(ncn3CC)n(Cc3ccccc3)c2=O)c1C | i
114 | CCn1c(CCNC(=O)c2ccc(Cl)cc2Cl)n[nH]c1=S | i
115 | CC(C)C(=O)Nc1cccc2nsnc12 | 3.2
116 | Cc1ccc(NCC(=O)N/N=C/c2cc3ccccc3nc2Cl)cc1 | 0.5
117 | CN(C(=O)c1ccco1)c1nnc(C23CC4CC(CC(C4)C2)C3)s1 | i
118 | CC1(C)CC(=O)C=C(NC2CCCCCC2)C1 | 0.1
119 | O=C(c1c(Cl)cccc1Cl)N1CCCCCC1 | 1.0
120 | COc1ccc(-c2nc(N)n(C(=O)Cc3ccccc3)n2)cc1 | 0.7
121 | COC(=O)C1=C(C)Nc2nnnn2C1c1cccs1 (stereo unspecified) | 0.0
122 | COC(=O)c1[nH]c2cc(C)ccc2c1NC(=O)CN1CCCc2ccccc21 | i
123 | COc1ccccc1Nc1nnc(SCC(=O)N2CCCC2)s1 | 0.9
124 | CCc1nc2c(oc3ccccc32)c(=O)[nH]1 | 0.3
125 | CS(=O)(=O)N(CC(=O)NCc1ccncc1)c1ccc(Cl)c(Cl)c1 | 1.2
126 | CC(C)c1nnc(NC(=O)CCC(=O)NCc2cccs2)s1 | i
127 | CCC(C)NS(=O)(=O)c1ccc(S(=O)(=O)N(CC(=O)Nc2ccccc2)Cc2ccco2)cc1 (stereo unspecified) | i
128 | FC(F)(F)c1cccc(CNc2ncccc2-c2nc3cc(Cl)ccc3o2)c1 | i
129 | Cc1cccc(OCCCCCn2ccnc2)c1C | i
130 | CN=C1c2cc3cc(OC)ccc3n2CCN1Cc1ccccc1 | i
131 | Cn1c(=O)c2c(nc(N3CCN(Cc4ccccc4)CC3)n2CCCc2ccccc2)n(C)c1=O | i
132 | CCC1CCCCN1C(=O)CSc1nnc(-c2cccc(Cl)c2)o1 (stereo unspecified) | 1.4
133 | Cc1cc[n+](-c2nc3ccccc3nc2C(=C=[N-])C#N)cc1 | 0.9
